Mtb hypoxia rep: reduces hypoxia-regulated biosensor signal in M. tuberculosis | 300,000 compounds, 0.1% hits | M. tuberculosis hypoxia-regulated fluorescent reporter, fluorescence | fluorescence inhibition, % (concentration not given with the values);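 active means 35 to 45% if threefold the growth effect, above 45% if 1.5-fold the growth effect; inactive means the rest, general growth blockers included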;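 further: wells of about 50 µL received 100 nL stock; 0% = vehicle wells and 100% = reference inhibitor wells; whole bacteria with a GFP reporter of the hypoxia response; strong numbers were not always called active; many hits fall short of the cut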
Bead autofluor: flagged as autofluorescent in microsphere protease counterscreen | compound autofluorescence counterscreen, microsphere flow cytometry; active compounds read high | fluorescence intensity (test concentration not listed) | 360,000 compounds, 3.1% hits | AID 624483;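 active means at least 3 SD above the mean of all compounds, about 16000 in these data; inconclusive means too few beads counted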;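 further: 100 nL of 1 mM stock went into each well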
Sa ugtP lethal: compounds lethal to S. aureus RN4220 ugtP deletion mutant; OD600 growth, 16 h; some inactives read as strong as hits; growth inhibition, % (concentration not given with the values); 330,000 compounds, 0.54% hits; AID 1259309;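 active means z-score under -3 and OD600 up to 0.15 on both plates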;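 further: plate controls were untreated wells for no effect and antibiotic for full effect; wells of about 80 µL received 100 nL stock; the first replicate is given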
BJeLR lethal: BJeLR cell viability loss; AID 1554; inhibition, % (no concentration beside the values); BJeLR (HRASV12) viability, CellTiter-Glo ATP luminescence, 48 h; reference of the scale not given here; 300,000 compounds, 0.17% hits;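 active means replicate mean above 50%; inconclusive means above 50% but judged a plate artefact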;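 further: 50 nL library stock added to about 25 µL; numbers are from one replicate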
RN4220 kill: S. aureus RN4220 growth inhibition | OD600, 16 h | inhibition, % (concentration not given with the values) | 330,000 compounds, 0.33% hits;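 active means z-score of -3 or lower and OD600 up to 0.18 on both plates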;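 further: plate controls were untreated cells for no effect and reference antibiotic for full effect; stock transfer was 100 nL into about 80 µL; one replicate is shown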
PrP 5UTR inh: inhibition of PrP 5' UTR reporter expression; cell-based PrP 5' UTR mRNA reporter, plate reader; inhibition, % (concentration not given with the values); 340,000 compounds, 0.35% hits; AID 488862;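 active means every replicate at 50% or more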;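 further: 0 = median of the neutral control wells; tested in H4 reporter cells; numbers are from one replicate; inactives centre near -14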
Mtb hypoxia rep growth: recorded beside Mtb hypoxia rep, whose call it bears; growth inhibition, %; measured here: M. tuberculosis growth (absorbance);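 0% = vehicle and 100% = reference antibiotic; read after six days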
* marks the source's active call; other numbers are inactive results; ? = inconclusive; · = not tested or not shown.

SMILES | Mtb hypoxia rep | Mtb hypoxia rep growth | Bead autofluor | Sa ugtP lethal | BJeLR lethal | RN4220 kill | PrP 5UTR inh
CCCCCC(=O)Nc1c(-c2cccs2)c(=O)c2ccccc2n1C | 2 | -4 | 16847* | -6 | -8 | 7.8 | 3
Cc1cc(-c2[nH]nc3c2C(c2ccsc2)C(C#N)=C(N)O3)c(C)s1 (configuration not stated) | · | · | 2136 | -7 | -8 | 4.7 | -5
CC(O)C(=O)N/N=C/c1cccc(Cl)c1Cl (configuration not stated) | · | · | 4424 | · | -4 | · | -32
COc1ccc(N(CC(=O)NCCC(C)C)C(=O)c2snc(C(=O)NC3CCCCC3)c2N)c(OC)c1 | 1 | 2 | 4089 | -10 | -10 | -5.1 | -18
CCCCn1c(NS(=O)(=O)c2ccccc2)c(S(=O)(=O)c2ccc(C)cc2)c2nc3ccccc3nc21 | -5 | 4 | 2716 | -25 | 0 | 3.7 | -14
O=C(NNC1=NCCC1)C1CC1 | 6 | 7 | 6619 | 3 | · | 6.3 | -13
CN(C)C(=O)c1ccc(NC(=O)c2cccc(S(=O)(=O)N3CCCc4ccccc43)c2)cc1 | 5 | 6 | 5986 | 5 | 2 | 11 | 0
Cc1ccc(S(=O)(=O)/C(C#N)=C/c2c(N3CCC(C(N)=O)CC3)nc3ccccn3c2=O)cc1 | 8 | 7 | ? | 3 | 1 | 7.0 | -14
Nc1cc(C(=O)O)c(N)c2c1C(=O)c1ccccc1C2=O | 17 | -10 | 4302 | -3 | 12 | 3.5 | -25
Cc1nc2c3cc(Cl)ccc3n(CCN3CCOCC3)c2s1 | 15 | 12 | 3555 | -4 | 4 | 0.9 | -11
O=C(NN=Cc1ccc(O)cc1O)c1ccc(NC(=O)C2CCCCC2)cc1 | 17 | 7 | · | 17 | · | 11 | ·
O=C(N/N=C/c1ccccn1)c1ccccc1 | · | · | 10669 | · | -6 | · | -34
CC1(C)CC(=O)C(C(=O)Cc2ccccc2[N+](=O)[O-])C(=O)C1 | -14 | 4 | 2509 | 1 | 14 | 2.2 | -25
COC(=O)c1ccc[n+](CC(=O)c2ccc(Br)cc2)c1 | · | · | 9379 | · | 5 | · | -10
COc1ccc(C(=O)NCCc2c[nH]c3ccccc23)cc1S(=O)(=O)N1CCOCC1 | · | · | 2614 | -6 | · | -3.1 | -17
CCOc1ccc(NC(=O)CSc2nnc(C34CC5CC(CC(C5)C3)C4)n2C)cc1 | 6 | 9 | 17197* | -1 | -7 | 0.5 | -4
O=C(Nc1cc(Cl)cc(Cl)c1)c1cnn2cccnc12 | -1 | -1 | 4454 | -9 | -3 | -2.2 | -34
COc1ccc(CC(=O)NC2CCN(Cc3nnnn3C(C)(C)C)CC2)cc1OC | 4 | 12 | 20961* | 5 | 2 | 3.0 | -8
Cc1cn2c(N)c(/C=C3\C=Nc4ccccc43)c(=O)nc2s1 | 6 | 2 | 3522 | -5 | 1 | 11 | -44
CCn1cc(C(=O)NNC(=O)c2ccc(Cl)cc2)c(=O)c2ccc(C)nc21 | 6 | 2 | 4295 | 3 | -4 | 7.3 | -9
O=C(Nc1cccc(NC(=O)c2ccc(Cl)cc2Cl)c1)c1cccnc1 | -14 | 3 | 3176 | 9 | -14 | 7.1 | -20
CCOc1ccc(/C=C2\SC(=O)N(CCNC(=O)C3COc4ccccc4O3)C2=O)cc1OC (configuration not stated) | 7 | -1 | 10873 | -5 | 2 | 5.0 | -15
COc1ccc(-c2[nH]nc3c2C(c2ccsc2)C(C#N)=C(N)O3)cc1 (configuration not stated) | 9 | 1 | 16667* | 9 | 1 | 3.6 | 13
O=C(COC(=O)Cc1cccc(C(F)(F)F)c1)Nc1ccccc1 | 2 | 3 | 2232 | -1 | -2 | 6.1 | -21
Cc1[nH]oc(=O)c1N=Nc1ccccc1 | 3 | 12 | 2451 | -4 | 4 | 8.5 | 0
O=C(O)c1ccc(-n2cccc2/C=C2/NC(=O)N(c3cccc(Cl)c3)C2=O)cc1 | 9 | 10 | 4446 | 0 | · | 2.7 | -5
COc1ccc(OC)c(NC(=O)C2CCCN2C(=O)C2CCC(C)CC2)c1 (configuration not stated) | · | · | 4989 | 6 | -6 | 1.3 | -17
Cc1ccc(CSCCNC(=O)/C=C/c2ccc(Cl)cc2)cc1 | 10 | 2 | 21860* | 7 | -1 | 0.4 | -25
COc1ccc(S(=O)(=O)O)cc1P(=O)(c1ccccc1)c1ccccc1 | 15 | 9 | 3380 | 5 | -1 | 4.6 | -18
Cn1c(=O)[nH]c(=O)c2c1nc(N1CCOCC1)n2CCCSc1ncccn1 | 2 | 7 | 2893 | 2 | -2 | 4.0 | -9
CCN1CCN(c2c(C=O)c(Cl)nc3ccc(OC)cc23)CC1 | 9 | -7 | 3924 | 12 | -11 | 2.3 | -22
COc1ccc(CNC(=O)COc2cc(=O)n(C)c3ccccc23)cc1 | 8 | 8 | 2445 | -5 | 5 | -0.3 | 0
O=C(/C=C/c1ccccc1)NCC(=O)NN=Cc1ccccc1[N+](=O)[O-] | -8 | -7 | · | -3 | · | 7.3 | ·
O=C(Cn1cc([N+](=O)[O-])cn1)Nc1ccn(Cc2c(F)c(F)cc(F)c2F)n1 | 10 | 6 | 23297* | 6 | 5 | -0.4 | -9
COc1ccc(N2CCN(c3ncccc3C#N)CC2)cc1 | 2 | 5 | 2749 | 7 | 3 | 6.6 | -18
COc1cc2c(cc1OC)CN(C(=O)c1nn(Cc3ccccc3)c(=O)c3ccccc13)CC2 | -9 | -2 | 3841 | -1 | · | 3.9 | -9
O=C(COC(=O)CCC(=O)c1ccc(F)cc1)NCc1ccc(Cl)cc1 | 12 | 10 | 3041 | 5 | · | 5.4 | -14
CSc1ccccc1-c1nnc(-c2ccc(Cl)cc2Cl)o1 | · | · | 2277 | -7 | -4 | -4.0 | -25
Cc1nn(-c2ccccc2)c(C)c1NC(=O)COC(=O)c1ccc(Cl)c(N)c1 | 4 | -2 | 6378 | 6 | 0 | 3.5 | -16
Cc1ccc(NC(=O)C(SCC(=O)O)c2ccccc2)cc1C (configuration not stated) | 2 | 6 | 3702 | 3 | -6 | 3.7 | -20
Cc1cc(C)c(NC(=O)C2CCCN2CCOC(=O)c2cccc([N+](=O)[O-])c2)c(C)c1 (configuration not stated) | 17 | 14 | 2041 | 7 | 4 | 17 | -12
Cc1ccc(NC(=O)COc2cccnc2[N+](=O)[O-])cc1S(=O)(=O)N1CCOCC1 | 4 | 6 | 3365 | 9 | -4 | 4.4 | 11
COc1ccc(/C=C2/N=C(SC)NC2=O)cc1OC | 1 | 4 | 6083 | 18 | 2 | 2.6 | -10
CC1CCCN(C(=O)CSc2nnc(-c3c[nH]c4ccccc34)o2)C1 (configuration not stated) | 6 | -10 | 6657 | 10 | -1 | 8.0 | -28
COC(=O)C1=C(C)N(Cc2ccccc2)C(=S)N[C@H]1c1cccc(F)c1 | · | · | 2970 | · | 3 | · | -11
FC(F)(F)c1cccc(NC(=S)NCc2ccccc2)c1 | 9 | 3 | 2893 | -42 | 2 | -2.4 | -15
O=C(c1ccccc1Br)N1N=C(c2ccccc2)CC1c1ccccc1F (configuration not stated) | -10 | 13 | 3562 | -14 | 1 | 1.4 | -11
COc1cccc(NC(=O)CSc2nnc(CNC(=O)c3ccco3)n2C)c1 | 4 | -2 | ? | 8 | -2 | 0.5 | -11
C=CCn1c(NCc2ccc3c(c2)OCO3)nc2ccccc21 | · | · | 2322 | -6 | · | -8.9 | -19
COc1ccc(-c2cc(NC(=O)c3cncn3-c3ccccc3)ccc2OC)cc1 | 4 | -6 | 4712 | 2 | -2 | 1.3 | -17
Cc1nn2c(N3CCOCC3)cc(C(C)C)nc2c1-c1ccccc1 | -4 | 14 | 3807 | 5 | 12 | 1.7 | -6
CN(C)c1ccc(/C=N/N2CCN(Cc3ccccc3Cl)CC2)cc1 | · | · | 3307 | · | -1 | · | -20
COc1cc(-c2nc3ccc(C)cn3c2NCc2ccccc2)ccc1SC1CCCCC1 | -7 | 4 | 4258 | 6 | 1 | 13 | -4
O=C(COC(=O)c1ccc(Cl)nc1)NC1CCCCCC1 | 6 | 4 | 2929 | 2 | · | 0.9 | -12
CCOc1ccc(N2C(=O)CC(SC(=NC)Nc3cccc(OC)c3)C2=O)cc1 (configuration not stated) | 2 | 4 | 4448 | 11 | -4 | 5.8 | -35
CCOC(=O)c1c(N)sc2c1C1CCN2CC1 | · | · | 4747 | -1 | 2 | -3.4 | -12
CC1CCCN(CC(=O)NNC(=O)COc2ccc(Br)cc2)C1 (configuration not stated) | 6 | 2 | 5108 | 1 | · | 2.4 | -20
CCN(C[C@H]1N[C@@](Cc2ccccc2)(C(=O)OC)[C@H]2C(=O)N(C)C(=O)[C@@H]12)S(=O)(=O)c1ccc(C(F)(F)F)cc1 | 0 | 0 | 2980 | 1 | · | 2.5 | -4
Nc1nnc(SCC(=O)Nc2ccccc2)s1 | 3 | 5 | 3389 | 5 | 2 | 4.0 | -17
COc1ccc(S(=O)(=O)N2CCOCC2)cc1NC(=O)COc1cccnc1[N+](=O)[O-] | 3 | 12 | 3078 | -1 | 5 | 1.8 | -30
(list continues)
SMILES | Mtb hypoxia rep | Mtb hypoxia rep growth | Bead autofluor | Sa ugtP lethal | BJeLR lethal | RN4220 kill | PrP 5UTR inh
O=C(C=Cc1cccs1)N1CCC2(CC1)Oc1ccc(Cl)cc1C(=O)C21CC(c2ccc(Cl)cc2)=NO1 (configuration not stated) | 5 | 4 | · | -5 | · | 1.7 | ·
Cc1cc(C)c(OCC(=O)OCC(=O)N2CCN(C(=O)c3ccco3)CC2)c(C)c1 | -2 | 3 | 4407 | 3 | -11 | 1.4 | -13
O=C(N/N=C/c1cccc(Oc2ccc([N+](=O)[O-])cc2[N+](=O)[O-])c1)c1cncc(Br)c1 | · | · | 11665 | · | 6 | · | -16
CCOC(=O)N1CCN(Cc2nc3c(c(=O)n(C)c(=O)n3C)n2Cc2cccc3ccccc23)CC1 | 1 | 11 | 2445 | 2 | -3 | -13 | -11
CCc1ccc(-c2cn3nc(-c4ccccc4)cnc3n2)cc1 | -3 | 9 | 5075 | -5 | 2 | 7.0 | -35
CC1CC(=O)N(Cc2ccccc2)c2ccccc2N1C=O (configuration not stated) | 6 | 6 | 20499* | 0 | 1 | 1.9 | -22
O=C(NCCCn1ccnc1)c1cccc(S(=O)(=O)Nc2ccc(F)cc2)c1 | 7 | 5 | 7407 | 0 | · | 3.9 | -50
Cn1c(NC(=O)C[n+]2cc(-c3ccc(F)cc3)n3c2CCC3)cc(=O)n(C)c1=O | -1 | -3 | 2606 | 4 | 2 | 1.6 | -14
COc1ccc(C=Cc2onc(C)c2S(=O)(=O)N2CCC(C(=O)NCCC(C)C)CC2)cc1 | -10 | 2 | · | -9 | · | 1.2 | ·
CCOc1ccc2nc3c(cc2c1)CN(CCOC)C(=NC)S3 | 4 | 6 | 4189 | 2 | 0 | 6.8 | -18
CCOC(=O)C1C(=O)N(C)C2(C)CC1c1ccccc1O2 (configuration not stated) | 2 | 3 | 4395 | 1 | 3 | 5.1 | -10
COC(=O)CCCC1=CC2=CC(=O)C(C)(OC(=O)c3cccs3)C(=O)C2=CN1CCCCO (configuration not stated) | 20 | 8 | 4050 | 5 | -9 | 6.5 | -29
CSCCC(NC(N)=O)C(=O)N(C)CC(=O)Nc1cc(C)ccc1C (configuration not stated) | · | · | 4058 | 4 | 2 | -2.7 | -4
CC(C)c1nc2oc3ccccc3c(=O)c2c(=O)n1-c1ccccc1 | 8 | 7 | 17355* | -5 | -6 | 24 | -62
CCC(Sc1nc(-c2ccccc2)c(C#N)c(=O)[nH]1)C(=O)Nc1cc(C)on1 (configuration not stated) | 18 | 1 | 9712 | 10 | -19 | 4.8 | -21

Record cards (already shown). Screens in order: Mtb hypoxia rep	Mtb hypoxia rep growth	Bead autofluor	Sa ugtP lethal	BJeLR lethal	RN4220 kill	PrP 5UTR inh
Shown for `O=C(C=Cc1cccs1)N1CCC2(CC1)Oc1ccc(Cl)cc1C(=O)C21CC(c2ccc(Cl)cc2)=NO1` (configuration not stated) = 5	4	·	-5	·	1.7	·
Shown for `CCC(Sc1nc(-c2ccccc2)c(C#N)c(=O)[nH]1)C(=O)Nc1cc(C)on1` (configuration not stated) = 18	1	9712	10	-19	4.8	-21
Shown for `COC(=O)CCCC1=CC2=CC(=O)C(C)(OC(=O)c3cccs3)C(=O)C2=CN1CCCCO` (configuration not stated) = 20	8	4050	5	-9	6.5	-29

Rows are unselected. Share with any hit: about 4.1%.
